# From PubChem
# StopGo RLuc: Primary qHTS Assay for Foot and Mouth Disease Virus Antivirals against NCGC Sytravon and CBC Compound Libraries: Renilla Luciferase Signal; AID 1745857, 2022; Potency, µM (doses to about 57.5 µM), without a hit: top-dose signal change, negative = less light; 0.32% of 120,000 active; HEK cells with a luciferase reporter of 2A StopGo recoding; active means well fitted falling curve with a large enough effect; inconclusive means small, poorly fitted or top-dose-only effect; inactive means no such curve, though single readings can be large or run the other way; further: nearly all actives have a fitted effect of over 55% in size; overnight with compound
# StopGo FLuc: Primary qHTS Assay for Foot and Mouth Disease Virus Antivirals against NCGC Sytravon and CBC Compound Libraries: Firefly Luciferase Signal; AID 1745856, 2022; Potency, µM (highest dose often 57.5 µM), without a hit: top-dose signal change, negative = less light; HEK cells with a luciferase reporter of 2A StopGo recoding; 0.23% of 120,000 active; active = well fitted falling curve with a large enough effect; inconclusive = small, poorly fitted or top-dose-only effect; inactive = no such curve, though single readings can be large or run the other way; further: nearly all actives have a fitted effect of over 60% in size; overnight with compound
# * = called active by the depositor; ? = inconclusive; & = joins results of further samples; [ ] = dose if it differs, or a comment. On the % scale 0 is the no-effect control and ±100 the full control effect; potency means the concentration at half of the fitted maximal effect.
molecule | StopGo RLuc | StopGo FLuc
CS(=O)(=O)OCCCOS(C)(=O)=O | 10% | 4%
COc1ccc(CCN2CNc3c(c(=O)[nH]c(=O)n3-c3ccccc3Cl)C2)cc1OC | -3% | -4%
C[C@H](O)[C@@H]1CN2CCc3ccc(N4CCOCC4)cc3[C@@H]2C[C@@H]1N(C)C(=O)c1cccc(Cl)c1 | 5% | -2%
Cn1c(=O)[nH]c(=O)c2c1nc(SCC(N)=O)n2CCc1ccccc1 | -1% | 1%
Cc1ccc(S(=O)(=O)c2cnc(SCC(=O)Nc3ccc4c(c3)OCCO4)[nH]c2=O)cc1 | -8% | 11%
CCCCCCn1c(N(C)Cc2ccccc2)nc2c1c(=O)[nH]c(=O)n2C | 0% | -5%
Cc1cc(C)c(S(=O)(=O)Nc2cnc3ccccc3c2)c(C)c1 | 313%[activator] | 0%
Cc1ccccc1-n1c(C)c(C)c2c1ncn1nc(-c3cccnc3)nc21 | 7% | 32%[activator]
O=C(c1ccc(Cl)c(S(=O)(=O)NC2CC2)c1)N1CCN(c2ccc(F)cc2)CC1 | 60%[activator] | 15%
COCCNC(=O)c1cnn(-c2cccc(C)c2)c1-n1cccc1 | -13% | 18%
N#Cc1ccccc1S(=O)(=O)N1CCN(C(=O)NC2CCCC2)CC1 | 2% | 17%
Cc1oc2c(cc(NS(=O)(=O)c3ccc(C(C)C)cc3)c3ccccc32)c1C(=O)OCc1ccccc1 | -15% | -5%
COc1ccc(NC(=O)c2ccc3oc(=O)c(S(=O)(=O)c4ccc(F)cc4)cc3c2)c(OC)c1 | -11% | ?
Cc1ccc(-n2ncc3c(NCCc4ccccc4)ncnc32)cc1 | -2% | 231%[activator]
CCC(=O)Nc1ccc(C(=O)N/N=C(\C)C(C)(C)C)cc1 | -7% | 8%

# The listing continues.
molecule | StopGo RLuc | StopGo FLuc
CC(C)(C)C1CCC(C(=O)NCCc2c[nH]c3ccccc23)CC1 (stereo not given) | -5% | 8%
CCCNc1c(NC(=O)Nc2cc(C)cc(C)c2)c(=O)oc2ccccc12 | -8% | 6%
CCc1ccccc1NC(=O)CSc1nnc(-c2ccc(OC)cc2)s1 | -8% | 15%
Cc1ccc(-n2ncc3c(NCc4ccccc4)ncnc32)cc1C | 31%[activator] | 218%[activator]
Cc1ccc2nc(NC(=O)COc3ccc(F)cc3)sc2c1 | 4% | 25%
COc1cccc(Cn2cc(C(=O)c3ccc(Cl)cc3)c(=O)c3ccccc32)c1 | 6% | -24%
CN(C)CCOc1cccc(N)c1 | 2% | -10%
CC(Oc1ccc(Br)cc1)C(=O)N1CCN(c2nccs2)CC1 (stereo not given) | 1% | 1%
COc1cccc(C(=O)/C=C/c2ccc(Br)cc2)c1 | 8% | 39%[activator]
COc1ccc(CNc2nc(-c3ccccc3)nn2C(=O)c2ccc(C)cc2)cc1 | -5% | 30%
N#CCN(C(=O)c1cc2ccccc2s1)C1CC1 | 71%[activator] | 32%[activator]
COC(=O)c1ccccc1NC(=O)NC(=O)C(F)(F)F | 13% | 10%
CCOc1ccc(N(Cc2ccccc2)C(=O)c2nc(SC)ncc2Cl)cc1 | ? | ?
Cn1c(=O)c2c(nc(NCc3cccs3)n2Cc2ccc(F)cc2)n(C)c1=O | ? | ?
Clc1ccccc1-c1noc(-c2cccc(Br)c2)n1 | 2% | 85%[activator]

# Carrying on.
molecule | StopGo RLuc | StopGo FLuc
CCc1nc2ccccc2c(C(=O)OCC(=O)NC(C)C(C)C)c1C (stereo not given) | 14% | -3%
COc1ccccc1NC(=O)Nc1nc(CC(=O)NC2CCCCCC2)cs1 | -16% | -5%
Cc1ccc(-c2nonc2NC(=O)c2cccs2)cc1 | 102%[activator] | 8%
Cc1ccc(NC(=O)c2cc(-c3ccc(C)o3)nc3ccccc23)cc1 | -15% | 19%
COc1ccccc1NC(=O)C(C)OC(=O)c1ccsc1 (stereo not given) | 11% | 10%
CC(=O)N1CCc2c(sc3c2c(=O)n(CCc2ccccc2)c(=O)n3Cc2cccc(C)c2)C1 | -10% | -19%
Fc1ccccc1N1CCN(Cc2nnc(-c3ccc4c(c3)OCO4)o2)CC1 | -12% | -3%
CCn1c(=O)n(CC)c2cc(Sc3ccccc3)c(NC(=O)c3ccccc3)cc21 | 43%[activator] | 20%
N#Cc1ccc(F)c(COC(=O)c2ccc(N3CCOCC3)nc2)c1 | -10% | 5%
CCNc1ccc2c(cc1=O)[C@@H](NC(C)=O)CCc1cc(OC)c(OC)c(OC)c1-2 | 34%[activator] | 12%
N#Cc1cccc(NC(=O)c2ccc3c(c2)N(Cc2cccc(Cl)c2)C(=O)c2ccccc2S3(=O)=O)c1 | -12% | -20%
CCn1cnc2c1c(=O)n(CC(=O)Nc1ccc(OC(F)F)cc1)c(=O)n2Cc1ccccc1 | -2% | 1%
COC(=O)c1cc(-c2ccc(OC)cc2OC)nc2ccccc12 | 15% | 20%
O=C(Nc1nnc(-c2ccc(Cl)cc2)o1)C1CCN(S(=O)(=O)c2ccc3ccccc3c2)CC1 | 16% | 52%[activator]
COc1cccc(NC(=O)CSc2nnc(C3CCCCC3)n2-n2cccc2)c1 | 13% | 0%

# The closing six entries of the section above open the next one:
molecule | StopGo RLuc | StopGo FLuc
CCNc1ccc2c(cc1=O)[C@@H](NC(C)=O)CCc1cc(OC)c(OC)c(OC)c1-2 | 34%[activator] | 12%
N#Cc1cccc(NC(=O)c2ccc3c(c2)N(Cc2cccc(Cl)c2)C(=O)c2ccccc2S3(=O)=O)c1 | -12% | -20%
CCn1cnc2c1c(=O)n(CC(=O)Nc1ccc(OC(F)F)cc1)c(=O)n2Cc1ccccc1 | -2% | 1%
COC(=O)c1cc(-c2ccc(OC)cc2OC)nc2ccccc12 | 15% | 20%
O=C(Nc1nnc(-c2ccc(Cl)cc2)o1)C1CCN(S(=O)(=O)c2ccc3ccccc3c2)CC1 | 16% | 52%[activator]
COc1cccc(NC(=O)CSc2nnc(C3CCCCC3)n2-n2cccc2)c1 | 13% | 0%
COc1ccc(N2C(=O)C(C)(C)CS2(=O)=O)cc1S(=O)(=O)NCCc1ccccc1F | ? | 12%
O=S(=O)(c1ccc(C(F)(F)F)cc1)N1CCN(Cc2nc3ccccc3o2)CC1 | 6% | -13%
CCCC(C)NC(=O)c1ccc(OC)c(S(=O)(=O)NCC)c1 (stereo not given) | 73%[activator] | 17%
c1ccc(CSc2nc3ccccc3s2)cc1 | 3% | 76%[activator]
CCc1cccc(CC)c1NS(=O)(=O)c1ccc2c(c1)CCN2C(=O)C1CC1 | 36%[activator] | -11%
Cc1c(C(=O)Nc2ccc(NC(=O)CC(C)C)cc2)cnn1-c1ccccc1F | -4% | 17%
O=C(NC1CC1)c1ccc2c(c1)OCCCO2 | 4% | 17%
Cc1cc(S(=O)(=O)Nc2cccc(-c3ccc(N4CCOCC4)nn3)c2)c(C)cc1Cl | 85%[activator] | 41%&16%[activator]
Cc1ccc(C(NC(=O)c2ccccc2Cl)C(Cl)(Cl)Cl)cc1 (stereo not given) | -4% | 9%
COC(=O)c1cc2c(cc1NC(=O)c1cnn(-c3ccccc3)c1-n1cccc1)OCO2 | -10% | -14%
O=C(Nc1ccccc1C(F)(F)F)c1ncoc1-c1ccco1 | 7%&-4% | 17%&-2%
COc1ccc(NC(=O)CSc2cn[nH]n2)cc1 | -3% | 77%[activator]
COC(=O)c1ccc(CCNC(=O)C2CC2)cc1 | 3% | 13%
Fc1ccc(OCc2noc(-c3ccco3)n2)c(Br)c1 | 13% | 66%[activator]
O=C(Cn1ccc2ccccc21)Nc1ccc2c(c1)OCCO2 | 16% | 170%[activator]

# The results go on.
molecule | StopGo RLuc | StopGo FLuc
CSc1nc(-c2ccc(C)cc2)c(C#N)c(N2CCN(C)CC2)n1 | 6% | 29%
Cn1c(=O)[nH]c(=O)c2c1nc(Sc1ncccn1)n2CCc1ccccc1 | -7% | -6%
COCCc1nn2c(=O)cc(COC(=O)c3ccco3)nc2s1 | -11% | -4%
O=C(CSc1cccc2cccnc12)NNC(=O)C(c1ccccc1)c1ccccc1 | -1% | 0%
CCCC(CCC)C(=O)NC1CC(=O)N(c2ccc3c(c2)OCCO3)C1 (stereo not given) | 9% | 6%
O=C(C1CCC(CNS(=O)(=O)c2cccs2)CC1)N1CCN(c2ccc(Cl)cc2)CC1 (stereo not given) | 4.5µM* | ?
Cc1ccc(CC(=O)NC2(C)CCCc3ccccc32)cc1 (stereo not given) | 7% | -3%
O=C(CN1C2=NCCN2c2ccccc21)c1ccc(Br)cc1 | -19% | -8%
CC(=O)c1ccc(NC(=O)CC2Sc3ccccc3NC2=O)cc1 (stereo not given) | 74%[activator] | 176%[activator]
CC(C)NC(=O)c1cc(=O)[nH]c2ccc(S(=O)(=O)Nc3ccc(F)cc3)cc12 | 125%[activator] | -4%
COc1cccc(C(=O)Nc2ccc3nc(SCC(=O)N(C)c4ccccc4)sc3c2)c1 | ? | ?
CCCC(CCC)C(=O)O | 8% | 22%[11.5 µM]
Cc1ccccc1-c1nc2ccc(Cl)cc2c(=O)o1 | 13% | 72%[activator]
CCOc1ccc(CNC(=O)c2oc3c(c2C)-c2nn(Cc4cccc(Cl)c4)cc2CC3)cc1 | ? | -16%
O=C(CSc1oc(-c2ccccc2)nc1S(=O)(=O)c1ccc(Br)cc1)NC1CCCCC1 | 3% | -14%

# (continued)
molecule | StopGo RLuc | StopGo FLuc
S=C1NC(c2cccs2)=CC(c2ccc(Br)cc2)N1 (stereo not given) | -16% | 31%[activator]
Cc1cc(C2CCCN2Cc2coc(-c3cccc(Cl)c3)n2)on1 (stereo not given) | 15% | 59%[activator]
COc1cc(NC(=O)COc2cc(C)cc3oc(=O)c(C)c(C)c23)cc(OC)c1OC | 16% | 15%
CC(C)(C)NCc1ccc(-c2ccccc2)o1 | -3% | 14%
Cc1cc(-c2ccc(C)c(S(=O)(=O)N3CCC(C)CC3)c2)on1 | 7% | -22%
COc1ccc(OC)c(C2CC(=O)Nc3c2c(=O)n(C)c2ncnn32)c1 (stereo not given) | 27% | 0%
Cn1nnnc1NCc1ccc(-c2ccccc2)o1 | 276%[activator] | 36%[activator]
Clc1ccc(N=Cc2ccc(Br)cc2)cc1Cl | 9% | 10%
CCC(=O)N1CCc2cc(S(=O)(=O)NC(Cc3ccccc3)C(=O)NCc3cccc(OC)c3)ccc21 (stereo not given) | 107%[activator] | -18%
COC(CNC(=O)Cc1c(C)nc2cc(-c3ccccc3)nn2c1C)OC | 2% | 88%[activator]
Cc1ccnc(NC(=O)Cc2nc(-c3ccccc3)oc2C)c1 | 329%[activator] | 461%[activator]
CCN(C(=O)Cc1noc2ccccc12)c1ccc(OC)cc1 | -4% | -5%
CCn1c(=N)c(C(=O)NC2CCCCC2)cc2c(=O)n3cccc(C)c3nc21 | -8% | -6%
COCCNC(=O)Cn1c(=O)n(Cc2ccc(C(=O)NCCc3ccc(OC)c(OC)c3)cc2)c(=O)c2ccccc21 | -3% | -2%
CCC(C)c1ccc(NC(=O)C2CCCCC2)cc1 (stereo not given) | 30% | 159%[activator]

# Next section
molecule | StopGo RLuc | StopGo FLuc
Cc1cc(C)c(C(=O)CSc2nnnn2C)c(C)c1 | 6% | 20%
CCOC(=O)c1cc(-c2ccccc2)n(CCC(=O)Nc2ccc(C)cc2Cl)c1C | -14% | -3%
CCOCc1cc(CN2CCN(c3cccc(C(F)(F)F)c3)CC2)c(O)c2ncccc12 | 2% | -25%
COc1ccc(C(=O)N2c3ccccc3C(C)(c3ccc(Cl)cc3)CC2(C)C)cc1 (stereo not given) | -2% | 0%
CN1CCN(C(=O)CCn2c(-c3ccccc3)cc3ccccc32)CC1 | 46%[activator] | 1%
CCCNC(=O)NCc1cccn1Cc1cc(C)ccc1C | 53%[activator] | 15%
Cc1nc2ccn(Cc3cccnc3)c(=O)c2cc1C(=O)NCc1ccc(Cl)cc1 | 11% | -10%
Cc1c(NC(=O)c2cc([N+](=O)[O-])ccc2N2CCOCC2)cccc1-c1nc2ccccc2o1 | 2% | -7%
CC1(C)Cc2ccccc2-c2nnc(-c3ccco3)n21 | 7% | 31%[activator]
C=CCN(CC#CCN(C)C(=O)c1cccn1C(=O)OC(C)(C)C)Cc1ccc(OC)cc1OC | -13% | -27%
CC(=O)c1cccc(NC(=O)c2c(-c3ccccc3Cl)noc2C)c1 | 6% | 18%
Cc1ccccc1NC(=O)N1CCc2cc(S(=O)(=O)N3CCC(C)CC3)ccc21 | 5%&51% | -5%&58%
Cc1csc2nc(-c3ccc(NS(=O)(=O)c4cc(F)ccc4F)cc3)cn12 | 22% | 25%
CCOC(=O)c1ccc(NC(=O)CCc2c(C)nn(-c3ccc(N4CCCCC4)nn3)c2C)cc1 | 5% | 173%[activator]
Cc1ccc(CC(=O)Nc2c(C(=O)N3CCN(c4ccccc4F)CC3)oc3ccccc23)cc1 | -10% | -11%

# Further structures follow.
molecule | StopGo RLuc | StopGo FLuc
Cc1ccc(Cn2ccnc2SCC(=O)NC2CCCC2)cc1 | 20% | 6%
Cc1ccc(OCC(=O)OCC(=O)NC2CCS(=O)(=O)C2)cc1C (stereo not given) | -7% | 6%
CCOc1ccc(CNC(=O)C2CCN(S(=O)(=O)N(CC(C)C)CC(C)C)CC2)cc1OC | ? | ?
Cc1ccn2c(c1)nc(=O)c1cc(S(=O)(=O)N3CCCCC3)c(Cl)cc12 | 0% | -3%
Cc1cccc(NC(=O)CN2CCN(Cc3csc(-c4ccccc4)n3)CC2)c1C | -5% | 3%
Cc1cccc(N(C)C(=O)Cc2c(C(=O)O)[nH]c3ccccc23)c1 | -9% | -10%
O=C(OCc1cc(=O)n2nc(C3CC3)sc2n1)c1ccccc1Cl | -8% | 6%
CCc1ccc2occ(CC(=O)Nc3nnc(C)s3)c2c1 | 89%[activator] | -1%
c1ccc(C(Sc2ncccn2)c2ccccc2)cc1 | 0% | 0%

# The list is partial; the hit share may differ from the screen's.
